CDC25B-CDK2 inh: human CDC25B-CDK2/CyclinA binding inhibition | P30305+P24941 | HTRF CDC25B-CDK2/CyclinA binding, anti-His/anti-Flag; active compounds read high | z-score (test concentration not listed) | hit rate 0.72% among 94,000 | AID 1259370;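 further: score is relative to mean and SD of negative controls; strong numbers were not always called active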
TAR Tat displ: HIV-1 TAR-Tat binding disruption; HIV-1 TAR RNA, Tat peptide displacement FRET; active compounds read high; z-score (test concentration not listed); hit rate 0.6% among 100,000; AID 1259389;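 further: score is relative to mean and SD of negative controls; some compounds called inactive have numbers as strong as hits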
* = called active by the depositor; / = not tested or not shown.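 How the source made its calls: active means z-score from 3 up in half or more of its runs; inactive means the rest.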

SMILES	CDC25B-CDK2 inh	TAR Tat displ
CC(C)CNC(=O)c1c2c(nn1C)-c1ccccc1SC2	-0.19	-1.18
O=C(c1cc(-c2ccc(Br)cc2)n[nH]1)N1CCN(C2CCCC2)CC1	/	-0.22
Cc1cc(=O)cc(C)n1-c1ccc(C(=O)O)cc1	0.84	-1.72
COCC(=O)Nc1c(C(=O)N2CCN(c3ccccc3)CC2)oc2ccccc12	/	3.46
Cn1cc(S(=O)(=O)N2CCOCC2)cc1C(=O)Nc1nccs1	/	0.24
CC1CCN(C(=O)CCc2nnc3ccc(N4CCOCC4)nn23)CC1	/	0.88
O=c1c(-c2cccc3ccccc23)c(C(F)(F)F)oc2cc(O)ccc12	-1.44	1.44
CCCS(=O)(=O)n1nc(-c2ccc(OC)cc2OC)cc1N	-2.15	/
O=C(c1ccc(-n2ccc3ccccc32)s1)N1CCCC1	/	-1.09
Cc1noc(/C=C/N(C)C)c1S(=O)(=O)N1CCC(C(=O)NC2CCCC2)CC1	-1.17	-2.59
CCN(CC)S(=O)(=O)c1cc(Br)cnc1N	-1.32	2.28
COc1ccc(Br)cc1C1Nc2ccc3ncccc3c2C2=C1C(=O)CC(C)(C)C2 (centres undefined)	-0.42	/
O=C(Nc1ccc2c(c1)OCCO2)C1COc2ccccc2C1 (centres undefined)	/	-0.18
O=C(c1ccc(F)cc1)c1cn(Cc2cccc(F)c2)c2ccccc2c1=O	-0.79	-0.75
Cc1csc2nc(CNS(=O)(=O)c3cccc(F)c3)cn12	-0.48	-0.98
CCCCN(c1ncnc2onc(C(=O)OCC)c12)C1CCN(C(C)=O)CC1	/	0.4
O=C1CC(=O)CC(c2ccccc2)C1	-1.41	/
COc1cc(C2C(=O)N(C3CCCC3)CC(=O)N2Cc2ccco2)ccc1OC(C)C (centres undefined)	0.43	/
Cc1noc2ncnc(N3CCCC(C(=O)Nc4ccccn4)C3)c12 (centres undefined)	/	0.85
CCCCN1C(SC)=NS(=O)(=O)c2ccccc21	/	0.58
COC(=O)c1ccc(CN2CC(=O)N3CS(=O)(=O)CC3C2=O)cc1 (centres undefined)	-0.7	1.07
CCN1CCN(c2ncnc3onc(-c4cccc(Cl)c4)c23)CC1	/	-0.23
CC12c3ccccc3C(C)(c3ccccc31)C1C(=O)N(c3ccc(C(=O)O)cc3)C(=O)C12 (centres undefined)	-1.16	1.48
Cc1cc(/C(N)=N/OC(=O)c2snnc2C)no1	-1.08	/
Cn1cc(CCC(=O)NCc2ccc(F)cc2)c2ccccc21	-2.6	/
Cc1cc(C)n(-c2nc3c(c(=O)n2CC(N)=O)CCC3)n1	/	2.61
O=C(Cc1n[nH]c(=O)c2ccccc12)N1CCC(Oc2nnc(-c3ccccc3)o2)CC1	-0.66	0.75
COc1ccc(C2C3=C(CC(C)(C)CC3=O)Nc3ncnn32)cc1 (centres undefined)	-0.43	1.49
CC(C)C(C(=O)Nc1ccccc1F)N1Cc2ccccc2C1=O (centres undefined)	/	-2.45
Cc1ccc2nc(Nc3ccc(Cl)cc3)c3nncn3c2c1	-0.36	1.6

The final 4 records of the section above open the next one.
SMILES	CDC25B-CDK2 inh	TAR Tat displ
O=C(Cc1n[nH]c(=O)c2ccccc12)N1CCC(Oc2nnc(-c3ccccc3)o2)CC1	-0.66	0.75
COc1ccc(C2C3=C(CC(C)(C)CC3=O)Nc3ncnn32)cc1 (centres undefined)	-0.43	1.49
CC(C)C(C(=O)Nc1ccccc1F)N1Cc2ccccc2C1=O (centres undefined)	/	-2.45
Cc1ccc2nc(Nc3ccc(Cl)cc3)c3nncn3c2c1	-0.36	1.6
COc1ccc(-n2c(C)nnc2SCc2nc(-c3cc(OC)ccc3OC)no2)cc1	-1.57	1.78
COC(=O)c1cc2sccc2n1Cc1nc(-c2ccc(C)cc2)oc1C	-1.31	0.35
CCCCC(=O)Nc1cc2c(cc1N1CCOCC1)n(C)c(=O)n2C	-1.32	-0.26
COC(=O)c1ccc2c(=O)n3nc(Nc4ccc(F)c(F)c4)sc3nc2c1	/	-0.18
Cn1nccc1C(=O)N1CCC(c2ccncc2)CC1	/	1.55
CCOc1ccc(C2N3CC4(CC)CN2CC(CC)(C3)C4O)cc1OC (centres undefined)	-0.14	0.8
COC(=O)c1sc2ccccc2c1S(=O)(=O)Nc1ccc(OC)cc1OC	/	0.43
CCNC(=O)C1CCN(c2cnccn2)CC1	-1.9	2.06
Cc1nc(NCc2ccccc2)cc(-c2ccccc2)n1	0.57	-0.03
COCCNc1sc(S(C)(=O)=O)nc1S(=O)(=O)c1ccc(Cl)cc1	-0.13	0.09
Cc1nc(-c2ccc(S(=O)(=O)N3CCCC3)cc2)co1	/	1.25
CCCc1cc(=O)n2nc(N(C)CC(=O)NCCCN3CCCC3)sc2n1	-0.69	1.4
COc1ccc(S(=O)(=O)N2CCC(NC(=O)N3CCC(O)CC3)CC2)cc1	1.52	0.95
COC(=O)c1cc(NS(=O)(=O)c2ccc3c(c2)c(=O)n(C)c(=O)n3C)cc(C(=O)OC)c1	-1.78	/
O=Nn1c2ccccc2c2ccccc21	-0.62	/
CCOCCCNS(=O)(=O)c1c(C)nc2sccn2c1=O	/	2.63
COc1cccc(C2Nc3ccccc3-c3cc(C)nn32)c1OC (centres undefined)	-2.23	0.64
O=C(CCc1ccccc1)NC1CCSC1=O (centres undefined)	-2.25	0.76
O=C1CSC(c2cccs2)C1 (centres undefined)	-0.41	/
COc1ccc2nc(NC(=O)Cn3cccc3)sc2c1	1.52	0.42
Cc1nnsc1C(=O)NCC1COc2ccccc2O1 (centres undefined)	-0.61	/
CC(O)CNCCNCc1ccc(-c2ccc(F)cc2)o1 (centres undefined)	/	0.05
CN(C)c1ccc(-c2ccncc2)cc1	-1.29	/
O=C(c1cccc(C(=O)N2CCN(c3ccccn3)CC2)n1)N1CCN(c2ccccn2)CC1	/	1.69
COc1ccc(-n2ccc(-c3ccccc3)nc2=S)cc1	0.27	/
CCOC(=O)c1ccc(NC(=O)c2cc(=O)[nH]c3ccccc23)cc1	-1.41	/
O=C(CSc1nccc(-c2cccs2)n1)c1cc(-c2ccccc2)no1	0.46	/
N#Cc1ccc(C#CCO)cc1	-2.43	/
COc1ccc2c(c1)CC(NC(=O)NCc1cccnc1)CO2 (centres undefined)	/	0.93
Cn1c(=O)oc2cc(S(=O)(=O)NCCCN3CCCC3=O)ccc21	-1.64	/
S=C(NNC(=S)NC1CC2CCC1C2)NC1CC2CCC1C2 (centres undefined)	-2.05	/
Cc1cc(NC(=O)C2CC(c3ccccc3F)=NO2)no1 (centres undefined)	-0.1	2.55
C[N+](C)(C)CCOC(N)=O	-1.23	2.37
O=C(Cn1c(=O)oc2cc(S(=O)(=O)N3CCCC3)ccc21)NCc1ccc(F)cc1	-1.86	0.4
CC1N=C2c3ccccc3N=C(SCC(=O)Nc3ccc(F)cc3F)N2C1=O (centres undefined)	/	-0.9
O=S(=O)(NCCc1nc(-c2ccc(Cl)cc2)n[nH]1)c1cccc2nsnc12	/	0.63
COc1ccc(C2SCC(=O)N2c2ccc(F)cc2)cc1 (centres undefined)	-2.01	/
O=C1CCCc2cc(S(=O)(=O)NCC3CCC(C(=O)N4CCc5ccccc54)CC3)ccc2N1 (centres undefined)	/	1.23
O=C(NCc1ccco1)C(=O)NCc1n[nH]c(=O)c2ccccc12	/	1.21
O=C(NCCNc1ccc(C(F)(F)F)cc1[N+](=O)[O-])c1cccs1	0.78	/
O=C(CSc1ccc2nnc(-c3ccc(F)cc3)n2n1)OCc1ccccc1	-10.3	/
COc1ccc(OC)c(CNc2ncnc3onc(-c4ccc(Cl)cc4)c23)c1	0.42	0.74
O=C(NC1CCCC1)c1ccc2c(c1)CCN2S(=O)(=O)c1ccc(Cl)cc1	-0.9	0.01
CCOC(=O)N1CCC(NC(=O)C(NC(=O)C2CCC(C)CC2)C(C)C)CC1 (centres undefined)	-1.33	0.09
O=c1sc2ccccc2c(NCCCN2CCOCC2)c1[N+](=O)[O-]	-2.78	-0.37
C=CCn1c(N)cc(=O)nc1SCC(=O)Nc1sc2c(c1C(=O)OCC)CCC2	-1.54	/
COCCOC(=O)C1=C(C)Nc2nc3ccccc3n2C1c1cccc(C)c1 (centres undefined)	-0.41	-0.56
CC1N=C2c3ccccc3N=C(SCC(=O)Nc3ccc(F)cc3)N2C1=O (centres undefined)	/	-0.51
CC(C)c1nnc(NC(=O)Cn2c(=O)oc3ccccc32)s1	-1.24	0.77
CC(C)c1ccccc1OCc1nc2ccc(F)cc2[nH]1	2.67	0.43

More records
SMILES	CDC25B-CDK2 inh	TAR Tat displ
CN(C)Cc1c(O)ccc2c(=O)c(-c3ccccc3)c(C(F)(F)F)oc12	-1.92	-0.77
Cc1ccc(NS(=O)(=O)c2cn(C)cn2)c(Cl)c1	/	1.36
CCOC(=O)C1CCN(S(=O)(=O)c2ccc3c(c2)C(=O)NCC(=O)N3)CC1	/	1.11
CC(CC(=O)NCc1ccc2c(c1)OCO2)CC1=NS(=O)(=O)c2ccccc2N1 (centres undefined)	/	0.21
CCOC(=O)c1nnn(-c2nonc2N)c1-c1ccc(C)cc1	1.93	0.89
O=C1c2cccnc2C(Nc2cccc(F)c2)N1c1ccccc1 (centres undefined)	/	1.22
CC(=O)N1CCc2cc(Br)cc(S(=O)(=O)CCC(=O)Nc3ccc(F)cc3)c21	-0.64	/
O=C(O)CSc1nc2cc(Cl)ccc2s1	-0.89	1.6
CN1CCc2c(sc(-n3cccc3)c2CNC(=O)Nc2cccc(Br)c2)C1	/	-0.16
O=C(Cc1c[nH]c2ccccc12)Nc1ccc2c(c1)CCC2	/	1.94

Single records (already shown). Order of screens: CDC25B-CDK2 inh, TAR Tat displ
CCOC(=O)C1CCN(S(=O)(=O)c2ccc3c(c2)C(=O)NCC(=O)N3)CC1 reads /, 1.11
CN(C)Cc1c(O)ccc2c(=O)c(-c3ccccc3)c(C(F)(F)F)oc12 reads -1.92, -0.77

(more compounds)
SMILES	CDC25B-CDK2 inh	TAR Tat displ
Cc1nc(N2CCN(c3ccccc3)CC2)c2c3c(sc2n1)CCC3	/	2.35
CC(C)Cn1c(=O)c2ccccc2n2c(CCC(=O)N3CCN(c4ccccn4)CC3)nnc12	-0.35	-0.01
O=c1cc(O)c2sc3nc(-c4cccnc4)cc(C(F)(F)F)c3c2[nH]1	0.51	-7.31
Cn1c2ccc(F)cc2c2nnc(SCCN3CCOCC3)nc21	-2.74	0.18
CC(C)(C)C(=O)Nc1sc2c(c1C#N)CCCC2	-1.9	2.45
O=S1(=O)C[C@H](N2CCN(c3ccccn3)CC2)[C@@H](S(=O)(=O)c2ccc(Cl)cc2)C1	-1.18	-0.32
Cc1c(C#N)c(=O)[nH]c2ccccc12	0.02	-1.21
CCOc1ccccc1C1Nc2ccccc2NC2=C1C(=O)CC(c1ccccc1)C2 (centres undefined)	-0.93	1.45
COc1ccccc1-c1c(C(F)(F)F)oc2cc(OC(C)C(=O)OC(C)C)ccc2c1=O (centres undefined)	0.26	2.21
CCc1cc(C(=O)Nc2cc(C)on2)no1	1.64	0.67
O=C1CC(N2CCN(Cc3ccc4c(c3)OCO4)CC2)C(=O)N1CC(c1ccccc1)c1ccccc1 (centres undefined)	-1.13	-0.11
COc1cccc(C2N3CC4(C)CN2CC(C)(C3)C4)c1O (centres undefined)	0.31	-0.26
O=C(O)c1cnn(-c2cccc(F)c2)c1-n1cccc1	0.29	1.99
Cc1ccc2c(=O)cc(C(=O)Nc3sc4c(c3C#N)CCCC4)oc2c1	0.55	5.17
O=S(=O)(Nc1ccccc1)c1ccc2[nH]c3c(c2c1)CCCCC3	/	1.19
COC(=O)c1c(N)n(-c2ccc(OC)c(Cl)c2)c2nc3ccccc3nc12	-0.7	/
CCn1cc(C(=O)N(CCCN2CCOCC2)Cc2ccco2)c(=O)c2ccc(C)nc21	-0.76	/
COc1cc(O)ccc1C1Nc2c(C)cccc2-c2cc(C)nn21 (centres undefined)	-0.49	0.98
COc1ccc(-c2coc3c(C)c4oc(=O)c5ccccc5c4cc23)cc1	-1.36	-1.19
O=C(O)c1ccc2noc(-c3ccc(F)cc3)c2c1	-0.73	-4.32

6 compounds drawn at random from those above:
SMILES	CDC25B-CDK2 inh	TAR Tat displ
O=C1CC(N2CCN(Cc3ccc4c(c3)OCO4)CC2)C(=O)N1CC(c1ccccc1)c1ccccc1 (centres undefined)	-1.13	-0.11
CCn1cc(C(=O)N(CCCN2CCOCC2)Cc2ccco2)c(=O)c2ccc(C)nc21	-0.76	/
COc1cc(O)ccc1C1Nc2c(C)cccc2-c2cc(C)nn21 (centres undefined)	-0.49	0.98
Cc1ccc2c(=O)cc(C(=O)Nc3sc4c(c3C#N)CCCC4)oc2c1	0.55	5.17
COc1cccc(C2N3CC4(C)CN2CC(C)(C3)C4)c1O (centres undefined)	0.31	-0.26
O=C(O)c1cnn(-c2cccc(F)c2)c1-n1cccc1	0.29	1.99

The list goes on:
SMILES	CDC25B-CDK2 inh	TAR Tat displ
CCCOc1ccc(C2c3c(oc4ccccc4c3=O)C(=O)N2c2ccc(C)cn2)cc1OCC (centres undefined)	-4.4	-0.59
COc1ccc(Cl)cc1NC(=O)C(CCSC)NS(=O)(=O)c1cccs1 (centres undefined)	-1.01	/
Cc1cc(-c2ccc(S(=O)(=O)N3CCN(C(=O)c4ccco4)CC3)s2)on1	/	0.9
CCc1ccc2oc(C(=O)N(Cc3sccc3C)C3CCS(=O)(=O)C3)c(C)c2c1 (centres undefined)	2.06	1.78
COc1ccc(Cc2nn3c(C4COc5ccccc5O4)nnc3s2)cc1OC (centres undefined)	-0.64	0.64
COc1cc(NS(=O)(=O)c2ccc(-c3ccno3)s2)cc(OC)c1	/	-2.7
O=S(=O)(NCc1cn2ccsc2n1)c1ccc2c(c1)OCCO2	-2.06	/
Cc1cccc(NC(c2ccc(F)cc2)c2ccc3cccnc3c2O)n1 (centres undefined)	-0.25	-0.46
O=c1[nH]c(-c2cccc(Cl)c2)nc2c1Cc1ccccc1O2	-1.27	1.59

Bioassay records (PubChem)
